Kir21 inh = Kir2.1 (mouse) channel inhibition. hit rate 0.85% among 310,000. B-score at 10 µM. P35561. HEK293-Kir2.1, FluxOR thallium flux fluorescence; stronger effect = lower value;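 active means fluorescence ratio B-score at or below minus 3 SD of library scores, with starting-brightness B-score within 2 SD, cut at about -4.2 in these data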;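 further: channel flux triggered by added potassium and thallium sulfate stimulus; B-score of peak minus minimum fluorescence over baseline after thallium stimulus; more negative B-score means stronger Kir2.1 block with less thallium influx; some compounds called inactive have numbers as strong as hits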
Target sequence (P35561 whole entry, looked up): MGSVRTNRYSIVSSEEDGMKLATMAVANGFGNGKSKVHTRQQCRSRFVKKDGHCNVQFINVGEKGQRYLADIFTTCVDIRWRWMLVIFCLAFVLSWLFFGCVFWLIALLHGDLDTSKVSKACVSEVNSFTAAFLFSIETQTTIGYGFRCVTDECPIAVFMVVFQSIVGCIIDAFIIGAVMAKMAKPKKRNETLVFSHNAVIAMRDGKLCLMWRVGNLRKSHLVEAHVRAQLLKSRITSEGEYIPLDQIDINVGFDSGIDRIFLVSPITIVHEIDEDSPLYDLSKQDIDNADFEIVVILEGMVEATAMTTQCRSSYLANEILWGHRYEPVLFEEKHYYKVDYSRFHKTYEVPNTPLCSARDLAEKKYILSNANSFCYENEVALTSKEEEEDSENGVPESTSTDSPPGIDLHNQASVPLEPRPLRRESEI
Active calls of the source: *. An excerpt, and most or all hits are left out here.

SMILES	Kir21 inh
CCOc1ccccc1NC(=O)Cn1[nH]c(=O)c2ccccc2c1=O	0.01
CCCCn1c(N)c(N(CCOC)C(=O)c2oc3ccc(OCC)cc3c2C)c(=O)[nH]c1=O	1.8
Cc1ccc(OCC(=O)N2CCN(C3=NS(=O)(=O)c4ccccc43)CC2)cc1	0
O=C(NCCCO)c1cc([N+](=O)[O-])cc2c1C=Cc1ccccc1O2	0.75
Cc1cccc(N2CCN(C(=O)CCCSc3nc4ccccc4[nH]3)CC2)c1C	-1.1
Cc1ccc(C(=O)N2CCCC(Nc3cccc(F)c3)C2)cc1N1CCNC1=O (stereo not drawn)	-0.91
CCn1cc(/C=N\NC(=O)C2(C)CC2(Cl)Cl)c(C)n1 (stereo not drawn)	1.4
O=C(Nc1cccc(O)c1)C1CC(c2cccc(Br)c2)=NO1 (stereo not drawn)	-0.04
CCOC(=O)c1[nH]c(COC(=O)c2ccccc2NC(=O)c2ccco2)c(C(=O)OCC)c1C	0.15
Clc1ccc(Cc2nnc(-c3cccs3)o2)cc1	2.4
COC(=O)/C(=C/c1cccnc1)NC(=O)c1ccccc1	-0.01
COC(=O)CNC(=O)CSc1nnc(-c2ccc(OC)cc2)n1CC(C)C	-0.03
CC(=O)Nc1ccc(NC(=O)C(C)OC(=O)CNC(=O)c2cccs2)cc1 (stereo not drawn)	0.51
Cc1cccc(NC(=O)Cn2nnc(C(=O)Nc3ccc(F)c(Cl)c3)c2N)c1	-2.4
NS(=O)(=O)c1ccc(CCN2C(=O)/C(=C\c3ccc(Cl)cc3)SC2=S)cc1	2
CC(=O)N1CCN2C(=O)C1CCCC(=O)c1cc(C(C)C)ccc12 (stereo not drawn)	0.61
CC1CCCC(C)N1C(=O)CN1C(=O)C(C)(C)Oc2ccc(C(=O)NC3CCCC3)cc21 (stereo not drawn)	-3.4
Cc1[nH]c(=S)c(C#N)c(C)c1CC(=O)c1ccc(Br)cc1	-0.53
O=C(O)CCCNC1=NCCC1	-0.7
CN(CC(=O)NCc1ccc2c(c1)OCO2)S(=O)(=O)c1ccc(Br)s1	0.35
Cc1nc(C)c(-c2ccn(C(=O)NC(C)C)n2)s1	0.13
O=C(NC1CCN(S(=O)(=O)c2ccc(Cl)cc2)CC1)C1CCCCC1	2
O=C(NCCCO)/C(=C\c1cn(-c2ccccc2)nc1-c1cccnc1)NC(=O)c1ccccc1	-0.19
Cc1ccc(S(=O)(=O)N2CCOCC2)cc1NC(=O)CSc1ncccn1	-0.4
COc1cccc(C(=O)NCC(=O)N/N=C/c2cccc(OC(=O)c3ccc([N+](=O)[O-])cc3)c2)c1	1.4
Nc1ccc(C(=O)Nc2cccc(NC(=O)c3ccc(N)cc3)c2)cc1	0.97
CCOC(=O)c1cccc(NC(=O)Nc2ccc(OCC)cc2)c1	-0.37
O=C1[C@H]2[C@H](C=CC[C@H]2C(=O)N2CCN(c3ccccc3)CC2)CCN1Cc1ccc(Cl)c(Cl)c1	-1.6
COc1ccccc1NC(=O)CN1C(=O)CCS(=O)(=O)c2ccccc21	1.4
Cc1ccc(CNC(=O)CN(C)S(=O)(=O)c2cccs2)cc1	0.43
O=S(=O)(c1ccc(C(F)(F)F)cc1)N1CCN(CCc2ccccc2)CC1	1.8
CCN1CCN(CC(=O)Nc2cc(C(F)(F)F)ccc2OCCOC)CC1	1.4
O=S(=O)(/N=C/N1CCOCC1)c1ccc(Cl)cc1	0.98
O=C(Cn1cnc2sc3c(c2c1=O)CCCC3)NCC(=O)Nc1ccccc1F	-0.14
CCc1ccc(NC(=O)c2cccnc2)cc1	-0.42
O=C(O)Cn1c(P(=O)(O)c2ccccc2)nc2ccccc21	1.1

Structural class, the compounds so far containing a Cl atom (7)
SMILES	Kir21 inh
CCn1cc(/C=N\NC(=O)C2(C)CC2(Cl)Cl)c(C)n1 (stereo not drawn)	1.4
Clc1ccc(Cc2nnc(-c3cccs3)o2)cc1	2.4
Cc1cccc(NC(=O)Cn2nnc(C(=O)Nc3ccc(F)c(Cl)c3)c2N)c1	-2.4
NS(=O)(=O)c1ccc(CCN2C(=O)/C(=C\c3ccc(Cl)cc3)SC2=S)cc1	2
O=C(NC1CCN(S(=O)(=O)c2ccc(Cl)cc2)CC1)C1CCCCC1	2
O=C1[C@H]2[C@H](C=CC[C@H]2C(=O)N2CCN(c3ccccc3)CC2)CCN1Cc1ccc(Cl)c(Cl)c1	-1.6
O=S(=O)(/N=C/N1CCOCC1)c1ccc(Cl)cc1	0.98

(next part)
SMILES	Kir21 inh
CC(/C=C/c1ccccc1)=N\NC(=O)CCc1ccccc1	0.38
CCOC(=O)c1ccc2c(c1)nc(SCc1cn3ccsc3n1)n2CC	0.7
CCC1CCCCN1CCCNC(=O)C1CC(=O)N(CCc2ccccc2)C1 (stereo not drawn)	-0.04
CCOC(=O)N1CCC(Nc2c(-c3ccccc3)c(=O)c2=O)CC1	-0.13
CCNc1c(C(=O)O)ccc2c1C(=O)c1ccccc1C2=O	1.6
O=C(Nc1ccnn1C1CCN(Cc2ccccc2OC(F)F)CC1)c1cccc(F)c1	-0.21
COc1ccc(/C(C)=N/N=C(\C)c2ccc(OC)cc2OC)c(OC)c1	-1.1
O=C(/C=C\c1cn(-c2ccccc2)nc1-c1ccc2c(c1)OCCO2)N1CCOCC1	1.1
COc1ccc(C(=O)COC(=O)CN2C(=O)NC(C)(C)C2=O)cc1OC	0.14
CCn1nccc1C(=O)Nc1cc(Cl)ccc1Cl	0.24
O=C(Nc1nc(-c2ccccc2)cs1)c1ccc(S(=O)(=O)N2CCc3ccccc32)cc1	0.61
CNc1nc(OC)nc(N2CCOCC2)n1	0.71
COc1ccc(C(=O)Nc2ccc3nc(N4CCCCC4)cc(C)c3c2)cc1OC	0.31
COc1ccccc1NC(=S)N(CCCN1CCOCC1)Cc1cccs1	-1.2
Cc1ccc(C(=O)N2CCN(c3ccc(NC(=O)c4cccnc4)cc3)CC2)cc1	-0.28
Cc1cc(C)cc(NC(=O)C(=S)NCc2ccccc2)c1	-1.7
CCn1c(SCC(=O)OCc2ccccc2)nc2c1c(=O)n(C)c(=O)n2C	0.53
Cc1nc(-c2cccs2)sc1C(=O)O	-0.09
COc1ccccc1N1C(=O)c2ccccc2NC1C(OC)OC (stereo not drawn)	0.4
CC(=O)c1ccc(NC(=S)NC(=O)/C=C/c2ccccc2)cc1	0
CN(C)CCCN(Cc1ccccc1)C(=S)Nc1cccc(C(F)(F)F)c1	-0.66
O=C(C1CCN(S(=O)(=O)c2ccccc2)CC1)N1CCOCC1	1.4
COc1cc2c(cc1OC)CN(Cc1ccccc1)CC2	-0.16
O=C(NC1CCCCC1)N1CCc2ccccc2C1	-0.7
FC(F)(F)c1ccc(Cl)c(NC(=S)NC2CC2)c1	-0.13
CCN(CC)c1ccc(Nc2cc3n(c(=O)n2)CCc2cc(OC)c(OC)cc2-3)cc1	-2.6
Cc1ccc(OCC(O)CNC(=O)c2ccccc2C(=O)O)cc1 (stereo not drawn)	1.9
O=C(Nc1nccs1)OCc1ccccc1	0.45
CCC(=O)Nc1cc(C(=O)O)ccc1S(=O)(=O)c1ccc(C)cc1	0.21
COc1ccc(NC(=O)CN(C)C(=O)CSCc2c(C)noc2C)cc1	0.04
Cc1ccc(C)c(C(=O)OCC(=O)Nc2ccc(N3CCOCC3)cc2)c1	-1.3
CCC(Sc1nc(C)cc(=O)[nH]1)C(=O)Nc1nnc(C)s1 (stereo not drawn)	-0.78
CC(=O)c1cccc(NC(=O)C2CCN(S(=O)(=O)c3ccc(F)cc3)CC2)c1	-0.97
Cc1nnc(NC(=O)CSc2n[nH]c(-c3ccccc3)n2)s1	-1.4
Cc1cccc(N2CCN(C(=S)NCCc3ccccc3)CC2)c1C	-0.27
O=C(Nc1cccnc1)c1ccc(S(=O)(=O)c2ccccc2)cc1	2
O=S(=O)(c1ccc(Cl)cc1)c1cc(O)ccc1O	1.1
CC1=CC2=NC(=O)CC(C)(C(=O)N(CC(=O)NC(C)C)C3CCCC3)N2C=C1 (stereo not drawn)	1.1
O=C(C1CC(=O)N(c2ccccc2)C1)N1CCN(c2ccccc2)CC1 (stereo not drawn)	0.53
COc1cccc(N2CCN(C(=O)c3ccc(CS(=O)Cc4ccccc4Cl)o3)CC2)c1 (stereo not drawn)	0
O=C(O)CCc1ccc(-c2ccc(Cl)cc2)o1	1.1
Cc1cc(C)nc(SCc2nnc(SCC(N)=O)n2Cc2ccco2)n1	1.5
O=C(CSc1nnc(Cc2cc(=O)[nH]c(=O)[nH]2)n1-c1ccccc1)N1CCCC1	0.29
O=C(CSc1nc2ccccc2c(=O)n1NC(=O)Cc1ccccc1)NCCc1ccccc1	-2.6
CC(=O)C1=C(c2ccccc2)NC(=O)NC1c1ccccc1 (stereo not drawn)	0.72
Cc1ccc(NC(=O)CSc2nnc(Cc3ccccc3)o2)c(C)c1	0.26
CCCOc1ccccc1C1NC(=O)NC(C)=C1C(=O)OCCOC(C)C (stereo not drawn)	0.01
O=C(O)c1ccc(S(=O)(=O)Nc2ccc(O)c(Sc3nc4ccccc4s3)c2)cc1	-0.44
O=C(O)c1cccc(C(=O)c2cccc3ccccc23)c1	0.2
Cc1cccc(OCc2nc3ccccc3c(=O)n2N)c1	-0.1
CCN(CC)S(=O)(=O)c1ccc(NC(=O)COC(=O)c2cc(S(=O)(=O)Nc3ccc(OC)cc3)ccc2O)cc1	1.1
COc1ccc(NC(=O)CN(c2ccc([N+](=O)[O-])cc2)S(=O)(=O)c2ccccc2)cc1	-0.69
O=C(OCCCOC(=O)c1ccc([N+](=O)[O-])o1)c1ccc([N+](=O)[O-])o1	-0.49
Cc1cccc2nc3ccccc3nc12	0.93
C=CCn1cc(/C=C2\SC(N3CCOCC3)=NC2=O)c2ccccc21	-0.8
COc1ccc(-n2c(=O)c3ccccc3n(CC(=O)NC3CCCCC3)c2=O)cc1	-2.2
COc1ccc(C(C)=O)cc1COC(=O)c1ccc2c(c1)OCO2	-2.1
Cc1c(C(=O)O)cccc1-c1ccc(/C=C2/NC(=O)N(c3ccccc3)C2=O)o1	-1.3
Cc1cc2oc(=O)cc(Cn3ccnc3)c2cc1C	-0.4
CC(C)(C)NC(=O)CN(C(=O)Cn1nnc(-c2ccccc2F)n1)c1cccc2c1CCCC2	-2.1
Next entries follow:
SMILES	Kir21 inh
O=C(NC1CCCC1)C(c1ccccc1F)N(C(=O)c1ccco1)C1CCCC1 (stereo not drawn)	-1.1
Cc1cc(=O)cc(C)n1-c1ccc(Cl)c(Cl)c1	2.3
CC(C)Oc1cc(NC(=O)CS(=O)(=O)CC(=O)N(C)C)c(Cl)cc1Cl	0.62
CC(C)COc1ccc(C(=O)Nc2ccc(N3CCOCC3)cc2N2CCOCC2)cc1	2.9
Cc1ccc2nc(NC(=O)CSc3nncc(=O)n3N)sc2c1	0.34
O=C(Nc1cccc([N+](=O)[O-])c1)c1ccc(N2CCCC2=O)cc1	-0.23
CC(C)c1ccc(NC(=O)CC2Oc3ccccc3NC2=O)cc1 (stereo not drawn)	0.05
C=CCN1C(=O)C(CC(=O)NCC)SC1=Nc1ccc(S(N)(=O)=O)cc1 (stereo not drawn)	-1.1
COc1cccc2c(=O)n(CC(=O)N3CCN(c4ccccc4)CC3)ccc12	0.67
COc1cc([N+](=O)[O-])ccc1NC(=O)NCc1cccnc1	1.3
COc1ccccc1/C=N/N1CCN(Cc2ccccc2Cl)CC1	2.1
COCCSc1ccccc1C(=O)NCCCn1ccnc1	0.96
C=Cc1ccc2c(c1)N(C)C(=C)S2	0.11
Cc1nc(NC(=O)COC(=O)CCc2nc3ccccc3s2)c(Cl)cc1Cl	2.1
CC(=O)N1CCN(CC(=O)Nc2ccccc2Sc2ccc(Cl)cc2)CC1	-0.23
CCC1Oc2ccc(C)cc2N(CC(=O)NCCC2=CCCCC2)C1=O (stereo not drawn)	1.1
C=CCNc1nc(-c2ccccn2)nnc1-c1ccccc1	0
CCCNC(=O)NNC(=O)c1ccc(F)cc1	-0.44
Cn1ncc(C(=O)Nc2ccc(OC(F)(F)F)cc2)c1-n1cccc1	0.35
CCCNc1ccc(C(=O)OCC)cc1[N+](=O)[O-]	-1.5
Cc1cc(-c2nnc(CCC(=O)N(CC3CC3)CC3CCCO3)o2)no1 (stereo not drawn)	0.23
COc1cccc(CNC(=O)C2CCN(S(=O)(=O)c3ccc(C)cc3)CC2)c1	-0.8
COc1ccc(/C=N/NC(=O)c2cccnc2)cc1CN1CCc2cc(OC)c(OC)cc2C1C (stereo not drawn)	-1
COc1ccc(C)cc1NC(=O)CN1CCN(c2ccc(F)cc2)CC1	1.2

Part of the list above in order of molecular weight, lowest first.
SMILES	Kir21 inh
O=C(Nc1cccnc1)c1ccc(S(=O)(=O)c2ccccc2)cc1	2
Cc1ccc(C)c(C(=O)OCC(=O)Nc2ccc(N3CCOCC3)cc2)c1	-1.3
Cc1ccc(C(=O)N2CCN(c3ccc(NC(=O)c4cccnc4)cc3)CC2)cc1	-0.28
Cc1ccc(S(=O)(=O)N2CCOCC2)cc1NC(=O)CSc1ncccn1	-0.4

Continuation:
SMILES	Kir21 inh
CCCC(c1nnnn1Cc1ccc2c(c1)OCO2)N1CCC(C(N)=O)CC1 (stereo not drawn)	0.45
CCC(Cc1ccccc1)NC(=O)CN1C(=O)CSc2ncccc21 (stereo not drawn)	-1.7
COc1ccc(-n2nc(C(=O)NCC(=O)N3CCCC(C)C3)c3ccccc3c2=O)cc1 (stereo not drawn)	-0.19
COC(=O)c1ccc(C2/C(=C(\O)c3ccc(OC)c(C)c3)C(=O)C(=O)N2c2cc(C)on2)cc1 (stereo not drawn)	-0.16
Cc1cc(N2CCCC2=O)c(N)cc1N	-1.6
COCCCNC(=O)C1CCN(c2nc(C)cc(C)n2)CC1	0.25
Cc1c(OCc2ccccc2)cccc1OCc1ccccc1	0.55
CCc1ccccc1NC(=O)c1cnn(-c2ccccc2)c1C	-0.39
COc1ccc(/C=N/NC(=O)c2ccccc2NC(=O)c2ccco2)c(OC)c1	0.82
CCN1CCCc2cc(CN(CCN3CCOCC3)C(=S)Nc3cc(F)cc(F)c3)ccc21	0
CC(=O)Nc1nc(CC(C)C)cc2c1c(=O)oc1ccccc12	0.27
